Screening data: PubChem BioAssay, Broad Institute
Env fusion inh – inhibitors of HIV-1 Env-driven cell-cell fusion, primary screen, HeLa-JRFL effector, CEM21 target cells, luciferase; inhibition, % at 12.3 µM; actives 1.1% (n = 360,000);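 active means mean replicate inhibition score of at least 50 and every replicate individually at or above 50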;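 further: 0% = plate neutral controls and 100% = maraviroc near 300 nM; one replicate is shown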
Yeast UUG start – modulators of yeast start codon fidelity, primary screen, whole organism, S. cerevisiae, single point, plate reader; activity score, % at 18.7 µM; S. cerevisiae UUG-firefly luciferase reporter, luminescence/redox ratio; actives 0.13% (n = 350,000); AID 602363, 2012;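 active means replicate mean at a twofold rise or more, about +100% in these data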;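 further: firefly luciferase made from a UUG start codon reports start codon fidelity; reporter light over untreated wells divided by growth signal over untreated wells; some hits fall short of that in this replicate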
An asterisk follows results filed as active; [ ] = dose if it differs, or a comment.

Env fusion inh,Yeast UUG start,smiles
-18[16.7 µM],5,CC(C)C#Cc1ccc2c(c1)O[C@H](CN(C)C(=O)C1CC1)[C@@H](C)CN([C@H](C)CO)S2(=O)=O
-81[16.7 µM],-2,COc1ccc(S(=O)(=O)Nc2ccc3c(c2)C(=O)N([C@H](C)CO)C[C@H](C)[C@H](CN(C)C(=O)Nc2ccc4c(c2)OCO4)OCCCC[C@H](C)O3)cc1
25[16.7 µM],13,COc1ccc(NC(=O)N(C)C[C@@H]2Oc3ccc(NC(=O)Nc4ccccc4)cc3CC(=O)N([C@@H](C)CO)C[C@@H]2C)cc1
-34[16.7 µM],0,COCC(=O)N(C)C[C@@H]1Oc2cc(C#C[C@H](C)O)ccc2S(=O)(=O)N([C@H](C)CO)C[C@@H]1C
17[16.7 µM],0,C[C@H](CO)N1C[C@H](C)[C@H](CN(C)S(C)(=O)=O)Oc2cc(-c3cccc(F)c3)ccc2S1(=O)=O
16[16.7 µM],-2,CCCNC(=O)N[C@H]1CC[C@@H](CCn2cc(C3CCCC3)nn2)O[C@@H]1CO
2[16.7 µM],-8,C[C@H](CO)N1C[C@H](C)[C@@H](CN(C)C(=O)Cc2ccncc2)Oc2ncc(C#CCN(C)C)cc2C1=O
-11[16.7 µM],5,C[C@H](CO)N1C[C@H](C)[C@@H](CN(C)C(=O)CN(C)C)Oc2ncc(C#Cc3ccncc3)cc2C1=O
30[16.7 µM],-11,Cc1noc(C)c1S(=O)(=O)N(C)C[C@@H]1OCCCC[C@H](C)Oc2ccc(NC(=O)Nc3ccc(C(F)(F)F)cc3)cc2C(=O)N([C@H](C)CO)C[C@@H]1C
-4[16.7 µM],-11,C[C@H](NC(=O)C[C@@H]1C=C[C@@H](NC(=O)C2CCC2)[C@@H](CO)O1)c1ccccc1
-9[16.7 µM],-8,C[C@@H]1CN([C@H](C)CO)C(=O)c2cc(NC(=O)NC3CCCCC3)ccc2O[C@H]1CN(C)C(=O)Nc1cccc2ccccc12
-7[16.7 µM],-1,C[C@@H]1CN([C@H](C)CO)C(=O)c2cc(NS(=O)(=O)c3cn(C)cn3)ccc2O[C@@H](C)CCCCO[C@@H]1CN(C)CC1CCCCC1
14[16.7 µM],-4,C[C@@H]1CCCCO[C@@H](CN(C)Cc2ccc(C(=O)O)cc2)[C@@H](C)CN([C@H](C)CO)C(=O)c2cc(NC(=O)c3ccccc3)ccc2O1
5[16.7 µM],4,C[C@@H]1CN([C@@H](C)CO)C(=O)c2cc(NS(=O)(=O)c3cccs3)ccc2O[C@@H](C)CCCCO[C@@H]1CN(C)S(=O)(=O)c1cn(C)cn1
14[16.7 µM],-5,CNC[C@@H]1Oc2ccc(NS(=O)(=O)c3cn(C)cn3)cc2C(=O)N([C@H](C)CO)C[C@@H]1C
-17[16.7 µM],23,CNC(=O)C[C@H]1CC[C@H]2[C@H](COc3ccc(NC(=O)Nc4cccc(Cl)c4)cc3C(=O)N2C)O1
-38,-3,COCC#Cc1ccc2c(c1)O[C@H](CN(C)C(=O)c1ccccc1)[C@@H](C)CN([C@H](C)CO)S2(=O)=O
13[16.7 µM],11,CN1C(=O)c2cc(NC(=O)Nc3cccc(Cl)c3)ccc2OC[C@H]2O[C@H](CC(=O)O)CC[C@@H]21
30[16.7 µM],3,C[C@H]1CN([C@@H](C)CO)C(=O)Cc2cc(NC(=O)CCCCCC(=O)Nc3ccccc3N)ccc2O[C@H]1CN(C)Cc1ccc(C(F)(F)F)cc1
-2[16.7 µM],1,Cc1noc(C)c1S(=O)(=O)Nc1ccc2c(c1)C(=O)N([C@@H](C)CO)C[C@H](C)[C@@H](CN(C)Cc1ccncc1)OCCCC[C@H](C)O2
2[16.7 µM],-11,COCC(=O)Nc1ccc2c(c1)C(=O)N(C)C[C@@H](OC)[C@@H](C)CN(CCC(F)(F)F)[C@@H](C)CO2
-3[16.7 µM],-5,CCCC(=O)Nc1ccc2c(c1)C(=O)N(C)[C@H]1CC[C@H](CC(=O)NCc3ccccc3)O[C@H]1CO2
-9[16.7 µM],-9,C[C@@H]1CCCCO[C@@H](CN(C)S(=O)(=O)c2ccccc2)[C@H](C)CN([C@@H](C)CO)C(=O)c2cc(NC(=O)c3ccncc3)ccc2O1
-3[16.7 µM],2,C[C@@H]1CN([C@@H](C)CO)C(=O)Cc2cc(NS(=O)(=O)c3ccc(Cl)cc3)ccc2O[C@@H]1CN(C)C(=O)Nc1ccc(F)cc1
-30[16.7 µM],4,CC(C)NC(=O)Nc1cccc2c1O[C@@H](CN(C)Cc1ccc(-c3ccccc3)cc1)[C@@H](C)CN([C@H](C)CO)C2=O

Continued, starting with the last two of the part before.
Env fusion inh,Yeast UUG start,smiles
-3[16.7 µM],2,C[C@@H]1CN([C@@H](C)CO)C(=O)Cc2cc(NS(=O)(=O)c3ccc(Cl)cc3)ccc2O[C@@H]1CN(C)C(=O)Nc1ccc(F)cc1
-30[16.7 µM],4,CC(C)NC(=O)Nc1cccc2c1O[C@@H](CN(C)Cc1ccc(-c3ccccc3)cc1)[C@@H](C)CN([C@H](C)CO)C2=O
-18[16.7 µM],-9,CCCC(=O)Nc1ccc2c(c1)C(=O)N(C)[C@@H]1CC[C@H](CC(=O)NCCc3ccncc3)O[C@H]1CO2
17[16.7 µM],8,C[C@H]1CCCCO[C@@H](CN(C)C)[C@@H](C)CN([C@@H](C)CO)C(=O)c2cc(N(C)C)ccc2O1
-4[16.7 µM],1,COCCNC(=O)C[C@H]1CC[C@@H]2[C@H](COc3ccc(NC(C)=O)cc3C(=O)N2C)O1
31[16.7 µM],-17,CC(C)CC#Cc1ccc2c(c1)O[C@H](CN(C)C(=O)C1CCCCC1)[C@H](C)CN([C@H](C)CO)S2(=O)=O
-14[16.7 µM],16,C[C@@H]1CCCCO[C@@H](CN(C)Cc2ccc(Cl)c(Cl)c2)[C@@H](C)CN([C@@H](C)CO)C(=O)c2cc(NC(=O)C3CCCCC3)ccc2O1
5[16.7 µM],2,C[C@@H]1CN([C@@H](C)CO)C(=O)c2cc(-c3cccnc3)cnc2O[C@H]1CN(C)C(=O)Nc1ccc(C(F)(F)F)cc1
-4[16.7 µM],13,C[C@@H]1CN([C@@H](C)CO)C(=O)c2cc(N(C)C)ccc2O[C@@H](C)CCCCO[C@@H]1CN(C)C(=O)Nc1ccccc1
-3[16.7 µM],-14,C[C@@H]1CN([C@H](C)CO)C(=O)c2cc(NC(=O)C3CCCCC3)ccc2O[C@@H](C)CCCCO[C@H]1CN(C)C(=O)Nc1ccc(F)cc1
1[16.7 µM],-2,COc1ccc(S(=O)(=O)Nc2ccc3c(c2)C(=O)N([C@H](C)CO)C[C@H](C)[C@H](CN(C)C(=O)Nc2ccc(F)cc2)OCCCC[C@H](C)O3)cc1
7[16.7 µM],0,Cc1ccc(S(=O)(=O)Nc2cccc3c2O[C@@H](CN(C)C(=O)NC2CCCCC2)[C@@H](C)CN([C@@H](C)CO)C3=O)cc1
-1[16.7 µM],1,CCC(=O)Nc1ccc2c(c1)C(=O)N(C)[C@H]1CC[C@@H](CC(=O)N3CCCCC3)O[C@@H]1CO2
-25[16.7 µM],18,C[C@@H]1CCCCO[C@H](CN(C)C(=O)C2CCCCC2)[C@H](C)CN([C@@H](C)CO)C(=O)c2cc(NC(=O)CCCN(C)C)ccc2O1
-6[16.7 µM],2,O=C(Nc1ccc(F)cc1)N[C@H]1C=C[C@@H](CC(=O)N2CCOCC2)O[C@@H]1CO
-9[16.7 µM],-14,O=C(C[C@H]1C=C[C@H](NC(=O)Cc2ccccn2)[C@H](CO)O1)NCCc1ccncc1
12[16.7 µM],5,CC(C)NC(=O)N(C)C[C@H]1Oc2ccc(NC(=O)C3CCCCC3)cc2CC(=O)N([C@H](C)CO)C[C@H]1C
-9[16.7 µM],24,CCCN(C)C[C@H]1OCCCC[C@@H](C)Oc2ccc(NS(=O)(=O)c3ccc(OC)cc3)cc2C(=O)N([C@H](C)CO)C[C@H]1C
3[16.7 µM],7,C[C@H](CO)N1C[C@H](C)[C@@H](CN(C)S(=O)(=O)c2ccc(F)cc2)Oc2ccc(NS(=O)(=O)c3ccc(Cl)cc3)cc2CC1=O
11[16.7 µM],0,COC(=O)C[C@@H]1CC[C@@H]2[C@@H](COc3ccc(NC(=O)c4ccc(F)c(F)c4)cc3C(=O)N2C)O1
-11[16.7 µM],-7,C[C@@H]1CN([C@@H](C)CO)C(=O)c2cc(NC(=O)c3ccccc3)ccc2O[C@@H](C)CCCCO[C@H]1CN(C)S(=O)(=O)c1ccccc1
-26[16.7 µM],20,C[C@@H](NC(=O)C[C@H]1C[C@@H]2c3cc(NC(=O)NC4CCCC4)ccc3O[C@@H]2[C@H](CO)O1)c1ccccc1
57*[16.7 µM],-5,CCC(=O)Nc1ccc2c(c1)C(=O)N(C)[C@H]1CC[C@H](CC(=O)NC3CCCC3)O[C@H]1CO2
-1[16.7 µM],0,CO[C@@H]1CN(C)C(=O)c2cc(NC(=O)c3ccccc3)ccc2OC[C@@H](C)NC[C@H]1C
1[16.7 µM],-1,CC(C)NC(=O)Nc1cccc2c1O[C@@H](CN(C)S(C)(=O)=O)[C@H](C)CN([C@H](C)CO)C2=O
-24[16.7 µM],7,Cc1noc(C)c1NC(=O)Nc1cccc2c1O[C@H](CN(C)Cc1ccc(C(F)(F)F)cc1)[C@H](C)CN([C@@H](C)CO)C2=O
-9[16.7 µM],-2,C[C@@H]1CN([C@H](C)CO)C(=O)Cc2cc(NC(=O)CCN3CCOCC3)ccc2O[C@H]1CN(C)C(=O)Nc1cccc2ccccc12

Gathered by group: the entries above with two or more sulfur atoms
Env fusion inh,Yeast UUG start,smiles
17[16.7 µM],0,C[C@H](CO)N1C[C@H](C)[C@H](CN(C)S(C)(=O)=O)Oc2cc(-c3cccc(F)c3)ccc2S1(=O)=O
5[16.7 µM],4,C[C@@H]1CN([C@@H](C)CO)C(=O)c2cc(NS(=O)(=O)c3cccs3)ccc2O[C@@H](C)CCCCO[C@@H]1CN(C)S(=O)(=O)c1cn(C)cn1
3[16.7 µM],7,C[C@H](CO)N1C[C@H](C)[C@@H](CN(C)S(=O)(=O)c2ccc(F)cc2)Oc2ccc(NS(=O)(=O)c3ccc(Cl)cc3)cc2CC1=O

Next results follow:
Env fusion inh,Yeast UUG start,smiles
8[16.7 µM],24,COc1ccc(S(=O)(=O)N(C)C[C@@H]2Oc3ccc(NS(=O)(=O)c4cccs4)cc3CC(=O)N([C@@H](C)CO)C[C@@H]2C)cc1
4[16.7 µM],-17,CCCNC(=O)N(C)C[C@H]1Oc2cc(-c3ccncc3)ccc2S(=O)(=O)N([C@@H](C)CO)C[C@@H]1C
10[16.7 µM],2,COCC#Cc1cnc2c(c1)C(=O)N([C@@H](C)CO)C[C@@H](C)[C@H](CN(C)C(=O)Cc1cccnc1)O2
-16[16.7 µM],10,CC(C)NC(=O)N(C)C[C@H]1Oc2cc(C#CCN(C)C)ccc2S(=O)(=O)N([C@@H](C)CO)C[C@H]1C
0,-46,C[C@@H]1CN([C@H](C)CO)C(=O)CCCn2nncc2CO[C@H]1CN(C)C(=O)Nc1ccc2c(c1)OCCO2
-7[16.7 µM],-3,C[C@@H]1CN([C@@H](C)CO)C(=O)c2cc(NC(=O)c3ccncc3)ccc2O[C@@H]1CN(C)Cc1ccc2c(c1)OCO2
5[16.7 µM],-15,COc1ccc(S(=O)(=O)N[C@@H]2CC[C@H](CC(=O)N3CCc4ccccc4C3)O[C@H]2CO)cc1
-14[16.7 µM],5,C[C@H]1CN([C@@H](C)CO)C(=O)Cc2cc(NC(=O)NC3CCCCC3)ccc2O[C@H]1CN(C)S(=O)(=O)c1cn(C)cn1
16[16.7 µM],-10,O=C(C[C@@H]1C=C[C@H](NC(=O)C2CCOCC2)[C@H](CO)O1)NCC1CC1
-8[16.7 µM],4,C[C@@H]1CN([C@H](C)CO)C(=O)c2cc(NC(=O)NC3CCCCC3)ccc2O[C@H]1CN(C)Cc1ccccc1
-18[16.7 µM],-9,C[C@H](NC(=O)C[C@H]1CC[C@H](NC(=O)C2CCC2)[C@@H](CO)O1)c1ccccc1
17[16.7 µM],-16,O=C(C[C@@H]1C[C@@H]2c3cc(NC(=O)Nc4ccc(C(F)(F)F)cc4)ccc3O[C@@H]2[C@H](CO)O1)NCCc1ccccc1
-28[16.7 µM],-16,Cc1noc(C)c1S(=O)(=O)Nc1ccc2c(c1)C(=O)N([C@@H](C)CO)C[C@H](C)[C@H](CN(C)C(=O)Nc1ccccc1)OCCCC[C@H](C)O2
-16[16.7 µM],-3,C[C@@H]1CN([C@H](C)CO)C(=O)c2cc(NC(=O)Nc3ccc(F)cc3)ccc2O[C@@H](C)CCCCO[C@@H]1CN(C)S(=O)(=O)c1ccc(Cl)cc1
-2[16.7 µM],10,CC(C)NC(=O)N[C@@H]1C=C[C@@H](CC(=O)O)O[C@H]1CO
3[16.7 µM],-9,COc1ccc(S(=O)(=O)N(C)C[C@@H]2Oc3ccc(NS(=O)(=O)c4ccc(Cl)cc4)cc3CC(=O)N([C@@H](C)CO)C[C@H]2C)cc1
5[16.7 µM],11,COc1ccc(C#Cc2cnc3c(c2)C(=O)N([C@@H](C)CO)C[C@H](C)[C@@H](CN(C)C(=O)c2ccccc2F)O3)cc1
20[16.7 µM],1,CO[C@@H]1CN(C)C(=O)c2cc(NC(=O)Nc3cccc(F)c3)ccc2OC[C@H](C)N(C(C)=O)C[C@@H]1C

Part of the list above, comma-delimited:
structure,Env fusion inh,Yeast UUG start
COc1ccc(S(=O)(=O)N(C)C[C@@H]2Oc3ccc(NS(=O)(=O)c4cccs4)cc3CC(=O)N([C@@H](C)CO)C[C@@H]2C)cc1,8[16.7 µM],24
CCCNC(=O)N(C)C[C@H]1Oc2cc(-c3ccncc3)ccc2S(=O)(=O)N([C@@H](C)CO)C[C@@H]1C,4[16.7 µM],-17

Only part of the results is shown (hit frequency here may not be typical).
